Mtb growth = M. tuberculosis H37Rv growth inhibitors, H37Rv strain (AID 1626) | M. tuberculosis H37Rv growth inhibition; higher % means a stronger effect | inhibition, % at 10 µM; hits with a dose series show IC50 in µM | 0.95% of 220,000 active;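 active = confirmed in a dose series; inconclusive = inhibition above 80% but not taken into the dose series; inactive = below 80% or under 30% at every dose of the series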;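 note: bacteria incubated seven days before Alamar blue readout; 0% = bacteria only wells and 100% = bacteria with antibiotic wells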
YopH PTP inh = YopH tyrosine phosphatase inhibitors, primary screen, biochemical, fluorescence Ex485/Em525; YopH tyrosine phosphatase [Yersinia enterocolitica]; inhibition, %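 (about 10 µM by stock and volumes)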; 0.16% of 140,000 active; AID 898, 2007;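 active = inhibition of 50% or more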;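 note: controls were vehicle for no effect and minimum signal wells for full effect; inactives centre near -20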
Arbovirus anti = antivirals against arbovirus infection, primary screen, cell-based, full library, 10K replicate subset. arbovirus infection cell-based antiviral screen. inhibition, % at 10 µM. 0.37% of 200,000 active. AID 1251, 2008;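 active = inhibition from about 30%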;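 note: bluetongue infection of BSR cells; cell survival read as ATP light after 72 h; 0% = infected wells without compound and 100% = uninfected wells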
RecA splice inh = Mtb RecA intein splicing inhibitors, primary screen, biochemical, fluorescence, HTS | Protein RecA (Mycobacterium tuberculosis (strain ATCC 25618 / H37Rv)), P9WHJ3 | cell-free RecA intein splicing | inhibition, %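 (about 9 µM by stock and volumes)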 | 0.75% of 290,000 active | AID 2221, 2009; in the data active = inhibition above about 30%; inconclusive = no clear call, values can overlap the other calls;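 note: 0% = vehicle wells and 100% = reference inhibitor control wells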
Target sequence (P9WHJ3 whole entry, looked up, canonical isoform): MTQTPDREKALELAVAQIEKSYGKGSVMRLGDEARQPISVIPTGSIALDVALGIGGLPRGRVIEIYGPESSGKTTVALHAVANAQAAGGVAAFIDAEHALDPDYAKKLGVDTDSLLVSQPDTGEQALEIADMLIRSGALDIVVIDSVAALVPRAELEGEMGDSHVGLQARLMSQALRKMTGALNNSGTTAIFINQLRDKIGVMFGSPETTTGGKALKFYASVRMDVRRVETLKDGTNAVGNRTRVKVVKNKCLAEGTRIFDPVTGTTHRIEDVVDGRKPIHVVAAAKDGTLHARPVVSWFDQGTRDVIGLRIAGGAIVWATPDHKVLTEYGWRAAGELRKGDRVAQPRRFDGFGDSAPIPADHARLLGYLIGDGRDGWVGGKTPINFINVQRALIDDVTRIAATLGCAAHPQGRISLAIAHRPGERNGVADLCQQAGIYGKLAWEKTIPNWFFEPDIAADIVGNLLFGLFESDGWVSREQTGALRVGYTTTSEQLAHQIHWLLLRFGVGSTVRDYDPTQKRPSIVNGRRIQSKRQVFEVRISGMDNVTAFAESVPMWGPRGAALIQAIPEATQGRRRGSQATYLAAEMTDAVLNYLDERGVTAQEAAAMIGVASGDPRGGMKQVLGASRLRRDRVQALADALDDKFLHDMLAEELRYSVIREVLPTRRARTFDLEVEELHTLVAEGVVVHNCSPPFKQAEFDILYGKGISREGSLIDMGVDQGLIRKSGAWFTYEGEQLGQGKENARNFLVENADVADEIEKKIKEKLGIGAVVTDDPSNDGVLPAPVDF
Mtb betalactam = beta-lactam sensitization of Mtb H37Rv, H37Rv. M. tuberculosis H37Rv growth with meropenem, percent inhibition; hits of this screen are not shown here. inhibition, % at 25 µM. 0.27% of 330,000 active;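 active = about 74% or more and at least 40 points above the plate without the antibiotic, then above 30% in a dose series; inconclusive = first-round hits that could not be retested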;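 note: growth measured after seven days incubation then overnight dye step; 0% = bacteria only wells and 100% = bacteria with antibiotic; twin plates without the antibiotic show which effects depend on it; some results filed as inactive read as strong as hits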
Arbovirus anti repeat = second read-out of Arbovirus anti, no call of its own (marks repeat the call); inhibition, %; measured here: 10K subset replicate screen; many hits read low in the repeat;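 first of two repeat runs on a subset; 0% = infected and 100% = uninfected wells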
Starred values were filed as active, the others as inactive; ? = inconclusive; . = not tested or not shown. A portion of the library; the hit share may differ from the screen's.

SMILES	Mtb growth	YopH PTP inh	Arbovirus anti	RecA splice inh	Mtb betalactam	others
Cc1cccc(C)c1OCc1n[nH]c(=S)n1N	-2%	.	16	2.8	-6
O=C(Nc1ccc(O)c(C(=O)O)c1)c1cccc(NC(=O)c2ccco2)c1	.	.	.	-0.1	-3
CCCCCCOc1ccc(C(=O)NCCCn2ccnc2)cc1	-1%	.	-17	2.1	0
Cn1c(=O)n(C)c2cc(NC(=O)c3cccc([N+](=O)[O-])c3)c(Br)cc21	5%	.	2	-0.2	-1
CCn1c2ccccc2c2cc(NC(=O)COC(=O)c3ccccc3O)ccc21	6%	.	-7	-0.8	0
Brc1cccc(C2Nc3cccc4cccc(c34)N2)c1	.	.	.	14	-2
COCCn1c(=O)[nH]c2cc(C(=O)NCCN3CCN(c4cccc(Cl)c4)CC3)ccc2c1=O	-3%	-22	5	-1.6	74
CCOC(=O)C1(Cc2ccccc2)CCN(Cc2cnn(-c3ccccc3)c2)CC1	16%	.	-2	.	-4
CC(=O)Nc1ccc(C(=O)NN2C(=O)c3ccccc3C2=O)cc1	4%	.	6	-1.6	2
CCOC(=O)C1=C(c2ccccc2)OC(N)=C(C#N)C1C1CCCCC1 (stereo not drawn)	-5%	-15	4	-2.1	-3
CCCN(CC(=O)Nc1ccc(C)cc1Br)CC(=O)Nc1ccc(F)c(F)c1F	3%	-26	-22	5.0	2
CN(C)c1cccc(C(=O)OCC(=O)N(Cc2ccccc2)C2CCS(=O)(=O)C2)c1 (stereo not drawn)	10%	.	12	1.5	-4
CCC(NC(=O)c1cc(COc2cncc(Cl)c2)on1)c1ccc(C)cc1 (stereo not drawn)	.	.	.	2.3	23
CCN1CCN(CC(=O)N2N=C(c3cccs3)CC2c2ccc(F)cc2)C(=O)C1=O (stereo not drawn)	-6%	.	6	0.6	18
Cc1ccc(C(=O)NC(=S)NNC(=O)COc2ccc([N+](=O)[O-])cc2)cc1	.	.	.	-0.6	1
O=C(CCNC(=O)c1ccc([N+](=O)[O-])cc1)N/N=C/c1ccc(F)cc1	-6%	.	-2	17	1
COc1ccc(CNS(=O)(=O)c2c(C(=O)N3CCCCC3)c(C)n(C)c2C)cc1	.	.	.	0.9	3
CCc1ccc(NCc2cc3c(C)nn(-c4ccccc4)c3[nH]c2=O)cc1	26%	1	-14	-1.2	97
CCCCCn1c(=O)c(C(=O)Nc2ccccc2C)c(O)c2ccccc21	.	.	.	-3.2	-1
OC(CNCCNc1ncccc1C(F)(F)F)Cn1ccc2ccccc21 (stereo not drawn)	-4%	.	.	-10	-10
CC(=O)N1CCN(S(=O)(=O)c2ccc(C)cc2)C1C(C)C (stereo not drawn)	2%	-34	3	-0.1	5
CC(C)CCN(C)C1CCN(C(=O)Nc2c(F)cccc2F)CC1	-6%	-10	14	-1.6	-1	Arbovirus anti repeat=1
O=C(C1=C(O)C(=O)N(Cc2ccccc2)C1c1ccncc1)c1ccco1 (stereo not drawn)	0%	-13	6	-2.1	-10
O=C(NC1CCCC1)C1c2ccccc2C(=O)N1C1CCCCC1 (stereo not drawn)	1%	-39	5	-0.8	-8
c1ccc(C2=Nn3c(nnc3-c3cccs3)SC2)cc1	-6%	.	.	-1.0	-2
SMILES	Mtb growth	YopH PTP inh	Arbovirus anti	RecA splice inh	Mtb betalactam	others
CCn1c(O)c(C=NCc2ccccc2)c(=O)[nH]c1=S	-5%	.	8	.	8
CCOc1ccc(S(=O)(=O)Nc2ccc3c(c2)OCO3)c2cccnc12	-13%	2	-3	7.6	-11
COc1ccc(-c2cc(C(F)F)n3ncc(C(=O)N4CCc5ccccc5C4)c3n2)cc1	2%	.	-6	-2.3	46
Cc1ccccc1C(=O)c1cccn1CC(=O)NCc1cccc(Cl)c1	.	.	.	3.9	0
CN(c1ccccc1)c1nc(N)c([N+](=O)[O-])c(N2CCCCC2)n1	6%	.	.	9.5	2
O=C(COc1ccc2ccc(=O)oc2c1)N1CC[C@@]2(O)CCCC[C@H]2C1	.	.	.	2.3	-3
Cn1c(=O)c2cc(S(=O)(=O)NC(Cc3ccccc3)C(=O)NCc3ccco3)ccc2n(C)c1=O (stereo not drawn)	-7%	-54	0	2.6	-5	Arbovirus anti repeat=5
Cc1ccccc1C(=O)NNC(=O)C(C)N1C(=O)c2ccccc2C1=O (stereo not drawn)	-4%	-31	0	-0.5	8
O=[N+]([O-])c1ccc(-c2nc(Nc3cccc(O)c3)c3ccccc3n2)cc1	.	.	.	0.4	2
CCCc1[nH]nc2c1C(c1ccc(OC)c(CSC3=NCCS3)c1)C(C#N)=C(N)O2 (stereo not drawn)	9%	-28	-15	74*	-5
C/C(=N/NC(=O)c1ccoc1C)c1ccc(NC(=O)c2ccncc2)cc1	7%	-18	-4	0.6	2
O=S(=O)(c1ccc(Br)s1)N1CCC(Cc2ccccc2)CC1	-7%	-63	4	0.3	-4
CC(C)NC(=O)C(Cc1ccccc1)N1C(=O)c2ccccc2C1=O (stereo not drawn)	7%	-11	-3	-2.1	2
O=C(COC(=O)c1cnccn1)c1ccc2ccccc2c1	-12%	3	10	0.4	-2
Cc1ccccc1-n1c(C)nnc1SCC(=O)NC1CCCc2ccccc21 (stereo not drawn)	0%	-17	3	1.9	-2
COc1ccc(N(CC(=O)NCc2ccc(C)cc2)S(=O)(=O)c2ccccc2[N+](=O)[O-])c(OC)c1	6%	.	5	5.7	-2
COc1ccc(CNC(=O)c2c(-c3c(F)cccc3Cl)noc2C)cc1	.	.	.	-1.2	3
COC(=O)C/C=C/[C@@H](C)[C@@H](/C=N/OCC[C@@H]1C=C[C@H](OC(C)=O)[C@@H](COC(C)=O)O1)NS(=O)(=O)c1ccc(C)cc1	.	-11	8	-0.2	-11
COc1ccc(NC(=O)CCS(=O)(=O)c2ccc(Br)s2)cc1	.	.	.	0.5	-3
NC(=O)C1CCN(Cc2nc3cc(C(F)(F)F)ccc3c(=O)[nH]2)CC1	-4%	.	.	-1.1	3
CC(C)(C)NC(=O)c1cccc(NC(=O)c2ccco2)c1	-3%	-6	0	-2.1	-11
CCOc1cc(C(=O)NC)cc(Br)c1OCc1ccccc1	7%	.	-4	-0.4	-4
COc1ccccc1-n1c(C)c2c(OC)cccc(=O)c2c1C	1%	0	18	-8.6	32
CN1CCN(C(=O)Cn2ncc3c([nH]c4ccccc43)c2=O)CC1	.	.	.	0.3	-2
NC(=O)COC(=O)/C=C/c1cccc(Br)c1	10%	.	-1	3.5	21

Continued; it opens with the seven that closed the last part.
SMILES	Mtb growth	YopH PTP inh	Arbovirus anti	RecA splice inh	Mtb betalactam	others
COc1ccc(NC(=O)CCS(=O)(=O)c2ccc(Br)s2)cc1	.	.	.	0.5	-3
NC(=O)C1CCN(Cc2nc3cc(C(F)(F)F)ccc3c(=O)[nH]2)CC1	-4%	.	.	-1.1	3
CC(C)(C)NC(=O)c1cccc(NC(=O)c2ccco2)c1	-3%	-6	0	-2.1	-11
CCOc1cc(C(=O)NC)cc(Br)c1OCc1ccccc1	7%	.	-4	-0.4	-4
COc1ccccc1-n1c(C)c2c(OC)cccc(=O)c2c1C	1%	0	18	-8.6	32
CN1CCN(C(=O)Cn2ncc3c([nH]c4ccccc43)c2=O)CC1	.	.	.	0.3	-2
NC(=O)COC(=O)/C=C/c1cccc(Br)c1	10%	.	-1	3.5	21
O=C1N(Cc2cccc(Cl)c2)C[C@@H]2C[C@@H](c3cccn3-c3cccnc3)N3CCC[C@@]123	6%	.	12	2.9	3
CCn1nc(C)c(CN2CCC(n3nccc3NC(=O)CCCc3ccccc3)CC2)c1C	.	.	.	1.4	-4
Cc1ccc(CNC(=O)CSc2ccc(-c3ccccn3)nn2)cc1	10%	.	-35	1.0	-11
CN1CCC(O)(c2ccccc2)C2CCCC21 (stereo not drawn)	5%	-3	0	0.7	-10
O=C1c2ccccc2C(=O)N1c1nc(-c2cccs2)cs1	60%	-38	1	3.3	41
O=C(CCSc1ccccc1)Nc1ccc(S(=O)(=O)N2CCOCC2)cc1	-12%	-18	3	0.4	-9
N/C(=N\OC(=O)N1c2ccccc2Sc2ccccc21)c1ccc(Br)cc1	?	-20	-12	5.4	0
CN1CCN(c2cc3c(cc2F)c(=O)c(C(=O)O)cn3CCF)CC1	?	.	.	0.0	100
COc1ccc(-c2nc(CSCC(=O)NCCCN3CCCC3=O)c(C)o2)cc1	.	.	.	0.1	-6
Fc1cccc(NC(=S)Nc2cccc3ccccc23)c1	.	.	.	3.3	-12
Cc1c(NS(=O)(=O)c2cc(C(=O)NCc3ccco3)cc(Cl)c2Cl)c(=O)n(-c2ccccc2)n1C	.	.	.	1.8	-8
Cc1ccccc1Nc1ccc(S(=O)(=O)N2CCOCC2)cc1[N+](=O)[O-]	2%	-22	-6	6.5	-2
COc1ccc(CNC(=O)/C=C/c2ccc3[nH]cc(CCN(C)C)c3c2)cc1	-10%	.	.	-4.8	0
CC(N)C12CC3CC(CC(O)(C3)C1)C2 (stereo not drawn)	-11%	1	15	0.6	-4
O=C(CSc1nnc(CNC(=O)c2ccco2)o1)c1ccccc1	-6%	-8	2	-1.0	2
CCCS(=O)(=O)N1CCN(S(=O)(=O)c2ccccc2[N+](=O)[O-])CC1	0%	.	6	-2.0	4
O=C(COc1ccc([N+](=O)[O-])cc1)NCCC1=CCCCC1	-2%	-27	5	0.5	-2
NC(=O)[C@H](Cc1cc2ccccc2s1)NC(=O)[C@@H]1CC2(CC(c3cccc(NC(=O)[C@@H]4CCC(=O)N4)c3)=NO2)CN1C(=O)/C=C/Sc1ccccc1 (stereo partly drawn)	10%	-6	-3	7.9	88
Cc1cnc(NC(=O)Cc2ccc(C)c(C)c2)s1	.	.	.	0.5	-8
CCN(CC)c1nc2cc(C)ccc2cc1/C=C(\C#N)C(N)=O	5%	.	-2	-0.1	-9
O=C(NCc1nnnn1-c1ccc(F)cc1)c1ccc([N+](=O)[O-])o1	.	.	.	-8.0	80
COC(=O)c1ccc(C2/C(=C(/O)c3ccc(OC)cc3)C(=O)C(=O)N2c2cc(C)on2)cc1 (stereo not drawn)	-4%	-32	18	-0.6	-14
CC(C)(C)c1cc(S(=O)(=O)CCc2ccncc2)cc(C(C)(C)C)c1F	.	.	.	1.1	-2
CN(C)S(=O)(=O)c1cccc(NC(=O)CSc2nc3ccccc3n2-c2ccccc2)c1	7%	-11	-27	12	-11
CCCCCn1c(NC2CCCCC2)nc2c1c(=O)[nH]c(=O)n2C	-3%	.	-4	4.0	-2	Arbovirus anti repeat=-5

Retrieved one by one from above (two):
SMILES	Mtb growth	YopH PTP inh	Arbovirus anti	RecA splice inh	Mtb betalactam	others
CC(N)C12CC3CC(CC(O)(C3)C1)C2 (stereo not drawn)	-11%	1	15	0.6	-4
N/C(=N\OC(=O)N1c2ccccc2Sc2ccccc21)c1ccc(Br)cc1	?	-20	-12	5.4	0

Carrying on.
SMILES	Mtb growth	YopH PTP inh	Arbovirus anti	RecA splice inh	Mtb betalactam	others
Cc1nc2ccc(C(=O)O)cc2nc1C	6%	-43	0	-4.5	-5
COc1cc(-c2c(-c3cccc(C)c3)oc3ccccc23)cc(OC)c1OC	.	.	.	3.5	4
COc1ccc(-c2cc(C(F)(F)F)nc(SCC(=O)N(C)Cc3cnn(C)c3C)n2)cc1OC	2%	-19	-2	-1.1	-4
CCSc1nnc(NC(=O)CSc2nc3c(c(=O)n2CC)SC(C)C3)s1 (stereo not drawn)	.	-45	-12	0.4	5
Cc1cccc(OCCCSc2nc3ccccc3[nH]2)c1	-4%	-38	24	11	0
Cc1c(OCc2ccccc2)c(=O)ccn1Cc1ccccc1	14%	-23	4	0.5	23
COCc1cc(CN(C)C(=O)C2CCC(=O)N(Cc3cccc(OC)c3)C2)[nH]n1 (stereo not drawn)	.	.	.	1.2	4
Cc1ccc(C(=O)Nc2ccc3c4c(cccc24)CC3)cc1[N+](=O)[O-]	59%	-4	-1	-0.3	99
S=c1[nH]nc(-c2ccncc2)n1/N=C/c1cccc(Cl)c1	-1%	.	.	0.3	-3
N#C/C(=C\c1ccc(N2CCOCC2)o1)c1ccccc1	13%	-8	-6	-10	8
COc1ccc(CCNC(=O)/C=C/c2cc(OC)c(OC)c(OC)c2)cc1OC	3%	.	-2	-2.0	-1
COc1cc(NS(=O)(=O)c2ccc(NC(=O)c3ccco3)cc2)nc(OC)n1	4%	-31	4	-1.4	3
COc1ccc(C(=O)Nc2nc(-c3ccc(OC)cc3)c(-c3ccc([N+](=O)[O-])cc3)s2)cc1	6%	-32	8	-8.7	-6
Cc1[nH]n(-c2ccccc2)c(=O)c1Sc1ccc(Cl)cc1	0%	-1	13	57*	-3

Screens: PubChem BioAssay, several laboratories
